TRPML1 agonist: agonists of human TRPML1 channel; activation, % (test concentration not listed); TRPML1-expressing cells, Ca2+ dye fluorescence, FDSS; host cell line not named in the record; reference of the full effect not given here; 410,000 compounds, 0.12% hits; in the data active = activation above about 50%; inconclusive = about 30% to 50%; inactive = below about 30%; note: 0% is about no effect; the text of the record puts the active cut at 80%
Target sequence (Q9GZU1 whole entry, looked up): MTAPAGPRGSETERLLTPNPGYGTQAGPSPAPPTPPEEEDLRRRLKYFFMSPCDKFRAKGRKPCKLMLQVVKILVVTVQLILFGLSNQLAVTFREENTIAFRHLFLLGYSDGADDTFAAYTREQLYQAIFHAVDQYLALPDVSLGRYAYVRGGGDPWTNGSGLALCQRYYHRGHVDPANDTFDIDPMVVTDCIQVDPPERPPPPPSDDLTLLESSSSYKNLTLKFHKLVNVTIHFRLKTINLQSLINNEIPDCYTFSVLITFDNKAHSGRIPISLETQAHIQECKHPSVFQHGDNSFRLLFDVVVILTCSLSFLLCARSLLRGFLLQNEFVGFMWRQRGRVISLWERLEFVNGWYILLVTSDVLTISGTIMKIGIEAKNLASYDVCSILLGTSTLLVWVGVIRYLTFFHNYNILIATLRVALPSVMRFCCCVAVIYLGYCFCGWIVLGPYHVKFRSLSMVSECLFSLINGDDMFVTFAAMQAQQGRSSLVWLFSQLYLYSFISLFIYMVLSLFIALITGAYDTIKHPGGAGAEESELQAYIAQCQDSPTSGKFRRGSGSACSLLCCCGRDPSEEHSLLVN
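Cells: TRPML1-DL, 1X Tet inducer, ~16 h at 37 degrees C/5% CO2. Dye: ABD Ca8 no-wash + quencher, 45-90 min RT. Read: 10 s baseline, compound add, 110 s agonist phase; 54-4 EC80 (4uM final), 110 s antagonist phase.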
TRPML1 inh: blocks the human TRPML1 channel; activity change, negative = inhibition, % (test concentration not listed); AID 624415; TRPML1-inducible cells, Ca2+ dye fluorescence, FDSS; stronger effect = lower value; inhibition of EC80 agonist-evoked calcium signal; 390,000 compounds, 0.02% hits; in the data active means activity change below about -50%; inconclusive means about -30% to -50%; inactive means above about -30%;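 note: stimulus is agonist 54-4 at its EC80 concentration; % is set by controls: 0 for no effect and ±100 for the full control effect; compound concentration not given in the record; the text of the record puts the active cut at -80%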
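Calcium fluorescence in TRPML1-DL cells induced overnight with Tet: a 110 s read after compound pin addition, then a 110 s antagonist read after challenge with 54-4 at 4 uM final (EC80).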
gsp agonist: gsp mutant agonism; gsp mutant cells, cAMP HTRF, 30 min; control for the full effect not named in the record; Potency, µM (highest dose often 76.9 µM), inactives show at the top dose activation (cAMP increase), usual class: activators; 340,000 compounds, 0.13% hits; AID 624287; active = well fitted activation curve with a large enough effect; inconclusive = small, poorly fitted or top-dose-only effect, or another doubt; inactive = no such curve, though single readings can be large or run the other way; cell line not stated here;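 note: phosphodiesterase inhibitor Ro 20-1724 added with compounds to block cAMP breakdown; potency is the fitted concentration of half-maximal effect; nearly all actives have a fitted effect of over 60% in size; about a fifth of the inactives were tested at one dose only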
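Cells stably selected in G418 were plated at 2000/well, grown 16-24 hr, then given compounds in DMSO with the PDE inhibitor […] (300 uM solution added) for 30 min at 37C; cAMP was read by HTRF.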
ClpP mod: qHTS Assay for Activators of ClpP; ATP-dependent Clp protease proteolytic subunit (Bacillus subtilis (strain 168)), P80244; purified B. subtilis ClpP, FRET peptide cleavage, 20 min; Potency, µM (highest dose often 57.5 µM), for inactives: at the highest dose activity change, negative = active; 340,000 compounds, 1.9% hits; active = well fitted falling curve with a large enough effect; inconclusive = small, poorly fitted or top-dose-only effect; inactive = no such curve, though single readings can be large or run the other way; note: potency is the fitted concentration of half-maximal effect; the source files actives as falling curves though it sought activators and does not explain the sign; nearly all actives have a fitted effect of over 65% in size; many hits overshoot -100%
Target sequence (P80244 whole entry, looked up): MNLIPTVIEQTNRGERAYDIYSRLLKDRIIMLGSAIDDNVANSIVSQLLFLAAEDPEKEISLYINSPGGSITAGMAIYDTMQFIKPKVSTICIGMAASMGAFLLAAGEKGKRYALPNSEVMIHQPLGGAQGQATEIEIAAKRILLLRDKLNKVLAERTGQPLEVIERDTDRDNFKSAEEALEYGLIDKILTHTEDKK
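ClpP 10 microg/mL final, pH 8 Tris/KCl buffer with BSA, glycerol, Tween-20; compound pinned in; FRET-FV substrate; RT 20 min; Ex320/Em430; ΔFRET vs ADEP 5.8 microM, DMSO, no enzyme.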
Menin MLL FP FL: menin-MLL binding inhibition, fluorescein peptide; Fluorescence polarization, fluorescein-MLL peptide displacement from menin; FP activity change, % at 61.4 µM; 290,000 tested, under 10 active; inconclusive = falling polarisation curve, or a change in total fluorescence; inactive = total fluorescence flat and polarisation flat or rising; no compound was filed as active; the % refers to the polarisation; negative = inhibition;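 note: % of control where 0% means no effect; inhibitors lower the polarisation; unlabelled MLL peptide was the positive control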
gsp antag: antagonists of gsp mutant (McCune-Albright syndrome). gsp-mutant cells, cAMP HTRF, 30 min; control for the full effect not named in the record. Potency, µM (series often up to 76.9 µM), without a hit: at the highest dose activity change, negative = inhibition, actives largely listed as inhibitors. 340,000 compounds, 0.4% hits; active = falling curve of any shape with a large fitted effect; inconclusive = falling curve, mostly with a smaller effect; inactive = flat or rising curve; cell line not stated here;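 note: intracellular cAMP measured with PDE inhibitor Ro 20-1724 present during compound exposure; potency is the fitted concentration of half-maximal effect; % is set by controls: 0 for no effect and ±100 for the full control effect; nearly all actives have a fitted effect of over 65% in size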
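Measurement of cellular cAMP by homogeneous time-resolved fluorescence following a 30 min compound exposure at 37C. The PDE inhibitor […] was present throughout; the assay buffer was DPBS with 0.05% BSA and 0.005% Tween 20.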
* = called active by the depositor; ? = inconclusive; / = no result given; & = joins results of further samples; [ ] = another dose, or the depositor's remark.

Every second line gives: TRPML1 inh | ClpP mod | TRPML1 agonist | gsp antag | Menin MLL FP FL | gsp agonist
[1] CCOc1ccccc1N1CCN(c2nc3ccccc3nc2C(C#N)C(=O)OC)CC1 (configuration not stated)
 : 1 | -9.7% | 0.7 | 2% | 2.1 | -55%[inhibitor]
[2] COc1cccc2c(=O)c3ccoc3n(C)c12
 : / | 5.2% | / | 2% | -1.9&-1.0 | /
[3] COc1cc(CCC(=O)N2CCN(S(=O)(=O)c3ccc(C)c(C)c3)CC2)cc(OC)c1OC
 : -25 | 0.2% | 0.2 | 7% | 1.5 | -29%
[4] CN(C)c1ccc(NC(=O)CSc2nc3ccccc3c(=O)n2CC2CCCO2)cc1 (configuration not stated)
 : -7 | / | -0.5 | -12% | 2.1 | -4%[15.4 µM]
[5] O=C(NCCc1ccco1)C(=O)NCC1OCCCN1S(=O)(=O)c1ccc(Cl)cc1 (configuration not stated)
 : -11 | 0.6% | 1.8 | 0% | / | 7%
[6] CCOC(=O)Cc1csc(NC(=O)c2ccc(S(=O)(=O)N(CCOC)CCOC)cc2)n1
 : 18 | 0.8% | 3.9 | -11% | 4.6 | -49%
[7] COc1ccc([N+](=O)[O-])cc1NC(=O)C(C)OC(=O)CSC(C)C(=O)Nc1cc(C)on1 (configuration not stated)
 : 4 | 1.9% | -0.3 | -9% | / | -8%[15.4 µM]
[8] OCCN1CCN(CCCN2c3ccccc3Sc3ccc(C(F)(F)F)cc32)CC1
 : -4 | -0.1% | 0.2 | 3% | -0.7 | /
[9] O=C(CN1CCN(C(=O)C2CCN(C(=O)/C=C/c3ccccc3)CC2)CC1)Nc1ccccc1Cl
 : -9 | / | 1.4 | 2% | / | -6%[15.4 µM]
[10] CN(CC(=O)Nc1cccc(F)c1)C(=O)CN1C(=O)NC2(CCCCC2)C1=O
 : -3 | / | 0.5 | 4% | / | 19%[15.4 µM]
[11] CCOc1ccc(NC(=O)c2ccc3[nH]c(C)c(C)c3c2)cc1
 : 8 | -0.8% | 0.4 | / | / | /
[12] CC(C)Cn1c(N)c(C(=O)COC(=O)/C=C/c2cccs2)c(=O)n(C)c1=O
 : 7 | / | -0.5 | ? | -2.4 | 25%
[13] N/C(=N\OC(=O)CCc1ccccc1)c1ccc(Br)cc1
 : -19 | 1.4% | 1.3 | 1% | 0.2 | -8%
[14] O=C(NCc1ccco1)c1ccc(N2CCCC2=O)cc1
 : 49 | -0.8% | -0.4 | 1% | 6.4 | 2%
[15] Cn1c(=O)c2c(nc(SCCN3CCOCC3)n2Cc2ccccc2)n(C)c1=O
 : -1 | -4.0% | -0.6 | 3% | 3.8 | ?
[16] COc1ccc(N2C(=O)CS(=O)(=O)C23C(=O)N(Cc2c(F)cccc2Cl)c2ccccc23)cc1 (configuration not stated)
 : 1 | -0.8% | 1.2 | / | / | /
[17] CCOc1cc2c(C#N)c(N3CCCC3)nc(N)c2c(N)n1
 : -4 | ? | -0.2 | 3% | / | -51%[inhibitor]
[18] Cc1c(NC(=O)N(C)c2ccccc2)c(=O)n(-c2ccccc2)n1C
 : / | -2.1% | / | 8% | -2.7 | 10%
[19] CC(C)CCNC(=O)CSCc1cnn(-c2ccccc2)c1-n1cccc1
 : 1 | -3.2% | 2.5 | / | / | /
[20] COc1cc2c(cc1OC)C(C)N(C(=O)c1cc3ccccc3o1)CC2 (configuration not stated)
 : 19 | -1.2% | 1.4 | -4% | 0.9 | -9%
[21] C[C@@H]1CN([C@H](C)CO)C(=O)c2cc(NS(=O)(=O)c3cn(C)cn3)ccc2O[C@H]1CN(C)C(=O)Nc1ccccc1
 : -4 | -6.2% | -0.6 | 7% | / | -6%
[22] CC(C)c1ccc(NC(=O)C2C3C=CC4(O3)C2C(=O)N(CCCN2CCOCC2)C4C(=O)NC2CCCCC2)cc1 (configuration not stated)
 : -3 | / | 0.0 | 8% | -2.1 | -4%[15.4 µM]
[23] COc1ccc(N(C)S(=O)(=O)c2cccc3cccnc23)c(OC)c1
 : 6 | 1.4% | 0.7 | -11% | 2.8 | -11%
[24] CCc1ccc(NC(=O)Cn2cnc3sc(C)c(S(=O)(=O)N4CCN(c5ccccc5OC)CC4)c3c2=O)cc1
 : 11 | 1.2% | -0.2 | / | / | /
[25] O=C(NCCCN1CCCC1=O)NC1CCCCC1
 : -7 | 0.7% | -0.6 | -9% | 3.0 | 7%
[26] O=C(CCn1c(=O)[nH]c2ccsc2c1=O)NCc1ccc(F)cc1
 : 5 | 0.0% | -0.3 | 7% | 0.6 | -25%
[27] O=C(Nc1cccc(Cl)c1Cl)c1ccccc1NC(=O)C1CC=CCC1C(=O)O (configuration not stated)
 : -7 | -1.3% | 0.0 | -29% | / | -66%[inhibitor]
[28] CCc1ccccc1NC(=O)CSc1n[nH]c(C)c1[N+](=O)[O-]
 : 2 | 1.4% | 0.7 | -18% | 7.2 | -25%
[29] C[C@@H]1O[C@@H](O[C@@H]2C(=O)c3c(O)cc(O)cc3O[C@H]2c2ccc(O)c(O)c2)[C@H](O)[C@H](O)[C@H]1O
 : 19 | -0.2% | 0.2 | 2% | / | -20%
[30] CC(=O)Nc1c(C(=O)N2CCOCC2)sc2nc3c(cc12)COC(C)(C)C3
 : 2 | -6.5% | -0.3 | 0% | -2.9 | -28%

6 neighbouring records out of the list so far:
Every second line gives: TRPML1 inh | ClpP mod | TRPML1 agonist | gsp antag | Menin MLL FP FL | gsp agonist
[23] COc1ccc(N(C)S(=O)(=O)c2cccc3cccnc23)c(OC)c1
 : 6 | 1.4% | 0.7 | -11% | 2.8 | -11%
[24] CCc1ccc(NC(=O)Cn2cnc3sc(C)c(S(=O)(=O)N4CCN(c5ccccc5OC)CC4)c3c2=O)cc1
 : 11 | 1.2% | -0.2 | / | / | /
[25] O=C(NCCCN1CCCC1=O)NC1CCCCC1
 : -7 | 0.7% | -0.6 | -9% | 3.0 | 7%
[26] O=C(CCn1c(=O)[nH]c2ccsc2c1=O)NCc1ccc(F)cc1
 : 5 | 0.0% | -0.3 | 7% | 0.6 | -25%
[27] O=C(Nc1cccc(Cl)c1Cl)c1ccccc1NC(=O)C1CC=CCC1C(=O)O (configuration not stated)
 : -7 | -1.3% | 0.0 | -29% | / | -66%[inhibitor]
[28] CCc1ccccc1NC(=O)CSc1n[nH]c(C)c1[N+](=O)[O-]
 : 2 | 1.4% | 0.7 | -18% | 7.2 | -25%

Carrying on.
Every second line gives: TRPML1 inh | ClpP mod | TRPML1 agonist | gsp antag | Menin MLL FP FL | gsp agonist
[31] CCc1ccc(-n2c(=O)c3c4c(sc3n(Cc3ccccc3C#N)c2=O)CCC4)cc1
 : ? | 1.4% | -0.5 | / | / | /
[32] COc1ccc(-c2csc3ncnc(N4CCN(S(=O)(=O)c5cccc(F)c5)CC4)c23)cc1
 : 4 | -3.7% | 0.8 | ? | / | 3%
[33] C=CCC[C@@H](Cc1ccc(F)cc1)C(=O)OCCNC(=O)[C@@H](CC=C)CC(=O)N[C@H](CO)Cc1ccccc1
 : 7 | 0.5% | 0.7 | -6% | / | -21%
[34] O=S(=O)(c1ccc(Cl)s1)N1CCNCC1
 : -7 | -3.8% | -0.1 | 11% | / | -6%
[35] COc1cc(CC(=O)Nc2cccc(S(=O)(=O)N(C)c3ccccc3)c2)cc(OC)c1OC
 : 3 | -0.2% | -0.9 | ? | / | 4%
[36] COc1ccc(/C=C2/C(=O)N(CC3CCCO3)C(=S)N2C)c(OC)c1 (configuration not stated)
 : 15 | -6.6% | 2.7 | -22% | 1.0 | -37%[inhibitor]
[37] C/C(=N\NC(=O)c1nn(C)c(C)c1Br)c1ccc(NC(=O)c2ccccc2F)cc1
 : 15 | 0.2% | -0.3 | 2% | 2.0 | 3%
[38] COc1ccc(-c2cc(C(F)(F)F)n3nc(C(=O)Nc4ccc(Cl)cc4C(F)(F)F)cc3n2)cc1OC
 : -25 | -12% | -1.1 | / | / | /
[39] CCCCC(=O)Nc1nn(CC)c2nc3c(C)cccc3cc12
 : 8 | 1.1% | -0.6 | -3% | -0.7 | -17%[15.4 µM]
[40] COCCn1c(SCC(=O)N2CCOCC2)nc2ccccc2c1=O
 : -10 | / | -0.5 | -30% | -0.5 | 9%[15.4 µM]
[41] CCOc1cc(C2CC(=O)NC3=C2C(=O)C(C(=O)OC)C(C)C3)cc(Cl)c1O (configuration not stated)
 : -3 | -1.6% | 1.0 | 5% | -5.7 | -11%
[42] Cc1c2c(nc3ccccc13)CCC(C)C2 (configuration not stated)
 : 4 | / | -0.2 | / | 0.8 | 7%[15.4 µM]
[43] COC(=O)CSc1nc2nc(-c3cccs3)cc(C(F)(F)F)c2c(=O)[nH]1
 : -12 | -14% | 1.0 | 12% | -8.9 | ?
[44] Cc1ccccc1C1CC(c2cccs2)Nc2nnnn21 (configuration not stated)
 : ? | / | 1.9 | -2% | 0.1 | -1%[15.4 µM]
[45] O=C1NNC(=O)C2C3C=CC(C4CC34)C12 (configuration not stated)
 : -1 | -1.3% | -0.2 | 5% | 0.6 | ?
[46] COc1cccc(OC)c1C(=O)N1CCN(Cc2ccncc2)CC1
 : -3 | 1.4% | -0.4 | 2% | 2.4 | -16%
[47] O=C(Cn1cc([N+](=O)[O-])cn1)Nc1ccc(Cn2cc(Br)cn2)cc1
 : -5 | ? | -0.6 | 8% | 1.0 | -3%
[48] CCCc1nc(C)c2c(=O)[nH]c(-c3cc(S(=O)(=O)N4CCN(CC)CC4)ccc3OCC)nn12
 : -13 | -3.5% | -0.7 | 2% | 3.0 | /
[49] Cc1ccc(NC(=O)CN2C(=O)NC(C)(c3ccc(Cl)cc3)C2=O)cc1S(=O)(=O)N1CCOCC1 (configuration not stated)
 : -4 | ? | 0.7 | -4% | 8.0 | 0%
[50] Cc1cc(NC(=O)COC(=O)c2ccc(Cl)cc2)no1
 : 20 | 1.9% | -0.6 | / | / | ?
[51] Cc1cccc(NC(=O)NNS(=O)(=O)c2ccc(F)cc2)c1
 : -4 | 2.1% | -0.1 | 6% | 5.8 | -36%[inhibitor]
[52] Cc1ccc(Sc2ccc(N)cc2C#N)cc1
 : 13 | ? | 2.7 | 8% | / | 5%
[53] Cc1ccc(CCNc2ncnc(Cl)c2N)cc1
 : 16 | / | 0.5 | -8% | / | 25%
[54] Clc1cncc(Cl)c1N/N=C/c1ccccc1
 : 24 | 0.7% | -0.9 | -14% | 1.4 | 5%[15.4 µM]
[55] Cc1cc(C)c(NC(=O)NC(=O)C(Cl)(Cl)Cl)c(C)c1
 : -9 | / | -0.4 | 14% | 4.6 | -4%[15.4 µM]
[56] Cc1cc(C)nc(SCCn2c(N3CCCCC3)nc3c2c(=O)n(C)c(=O)n3C)n1
 : -14 | -0.2% | -1.1 | 13% | -3.2 | 16%

This is a random part of the collection; overall some 2.1% were active at least once.
